Compound activity: PubChem, National Center for Advancing Translational Sciences (NCATS)
Rab9 promoter act: Rab9 promoter activation | Huh7 Rab9 promoter-luciferase reporter, luminescence, 24 h | Potency, µM (series often up to 9.22 µM), without a hit: at the top dose activation, negative = inhibition, usual class: activators | 320,000 tested, 2.8% active | AID 485297; note: potency is the fitted concentration of half-maximal effect; % of control where 0% means no effect; nearly all actives have a fitted effect of over 60% in size
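Using Huh7 cells stably transfected with Rab9 promoter–luciferase, compounds were incubated 24 h at 37 °C, 5% CO2; luciferase luminescence was read 10 min after reagent addition.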
MBNL1-CUG inh: blocks human MBNL1 binding to CUG repeat RNA; Q9NR56; TR-FRET MBNL1-His/biotin-(CUG)12 binding, 665/545 ratio; Potency, µM (titrated, usually from 57.5 µM), for inactives: at the top dose activity change, negative = inhibition, most hits filed as inhibitors; 280,000 tested, 0.036% active; active = well fitted inhibition curve with a large enough effect in the signal ratio, with a control signal flat, not every such curve was filed as active; inconclusive = small, poorly fitted or top-dose-only effect, or effect the other way, or a change in a side signal; inactive = no such curve, though single readings can be large or run the other way; the % refers to the signal ratio; note: potency is the fitted concentration of half-maximal effect; % is set by controls: 0 for no effect and ±100 for the full control effect
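Ratiometric TR-FRET (665 over 545 nm, excitation 340 nm) tracks disruption of MBNL1-His/biotin-(CUG)12 complex after 60 min at room temperature, with compounds at 92 nM to 58 uM final.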
FLuc modulator: counter-screen for miR-21 project: firefly luciferase inhibitors or activators; Potency, µM (series often up to 57.5 µM), inactives show at the highest dose activity change, negative = inhibition, usual class: inhibitors; 360,000 tested, 6.9% active; purified FLuc, Km substrates, luminescence inhibition; AID 588342; P08659;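 note: potency is the fitted concentration of half-maximal effect; plate controls were vehicle for no effect and reference inhibitor for full effect; nearly all actives have a fitted effect of over 55% in size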
Target sequence (P08659 whole entry, looked up): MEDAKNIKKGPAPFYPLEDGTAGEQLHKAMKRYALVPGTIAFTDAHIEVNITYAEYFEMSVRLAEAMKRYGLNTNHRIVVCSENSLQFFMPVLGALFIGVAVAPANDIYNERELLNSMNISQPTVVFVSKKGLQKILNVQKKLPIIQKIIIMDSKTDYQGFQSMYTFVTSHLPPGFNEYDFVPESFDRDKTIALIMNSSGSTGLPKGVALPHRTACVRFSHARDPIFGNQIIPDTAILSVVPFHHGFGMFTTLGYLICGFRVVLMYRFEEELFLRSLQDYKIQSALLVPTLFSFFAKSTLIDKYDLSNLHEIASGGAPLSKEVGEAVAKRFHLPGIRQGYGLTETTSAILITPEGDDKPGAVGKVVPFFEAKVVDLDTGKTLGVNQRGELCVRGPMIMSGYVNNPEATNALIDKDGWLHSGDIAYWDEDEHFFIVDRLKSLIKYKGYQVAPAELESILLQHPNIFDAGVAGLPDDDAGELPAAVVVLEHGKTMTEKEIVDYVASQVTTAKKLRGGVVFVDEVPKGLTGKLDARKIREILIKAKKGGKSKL
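Purified P. pyralis luciferase (10nM final) with 10uM D-luciferin and 10uM ATP (Km levels) in 50mM Tris acetate pH 7.5, 10mM Mg acetate, 0.01% Tween-20, 0.05% BSA; qHTS 6-point titration, ~60 µM downward; luminescence read.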
VP16 counter: Gal4-VP16 reporter inhibition counter-screen; Drosophila S2 Gal4-VP16 UAS-luciferase, luminescence, 20 h; Potency, µM (top dose mostly 53.6 µM), without a hit: top-dose activity, negative = inhibition, usual class: inhibitors; 310,000 tested, 3.5% active; AID 2546;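 note: Gal4-VP16 expression switched on by copper sulfate through the metallothionein promoter; potency is the fitted concentration of half-maximal effect; % is set by controls: 0 for no effect and ±100 for the full control effect; nearly all actives have a fitted effect of over 50% in size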
PKM2 activator: activators of human pyruvate kinase M2 | purified PKM2, Kinase-Glo ATP luminescence, activation; response scale: 0% is enzyme alone, no compound | 260,000 tested, 0.34% active | Potency, µM (doses to about 57.5 µM), for the others: at the highest dose activation, most hits filed as activators | P14618; note: potency is the fitted concentration of half-maximal effect; % is set by controls: 0 for no effect and ±100 for the full control effect; nearly all actives have a fitted effect of over 55% in size
Target sequence (P14618 whole entry, looked up): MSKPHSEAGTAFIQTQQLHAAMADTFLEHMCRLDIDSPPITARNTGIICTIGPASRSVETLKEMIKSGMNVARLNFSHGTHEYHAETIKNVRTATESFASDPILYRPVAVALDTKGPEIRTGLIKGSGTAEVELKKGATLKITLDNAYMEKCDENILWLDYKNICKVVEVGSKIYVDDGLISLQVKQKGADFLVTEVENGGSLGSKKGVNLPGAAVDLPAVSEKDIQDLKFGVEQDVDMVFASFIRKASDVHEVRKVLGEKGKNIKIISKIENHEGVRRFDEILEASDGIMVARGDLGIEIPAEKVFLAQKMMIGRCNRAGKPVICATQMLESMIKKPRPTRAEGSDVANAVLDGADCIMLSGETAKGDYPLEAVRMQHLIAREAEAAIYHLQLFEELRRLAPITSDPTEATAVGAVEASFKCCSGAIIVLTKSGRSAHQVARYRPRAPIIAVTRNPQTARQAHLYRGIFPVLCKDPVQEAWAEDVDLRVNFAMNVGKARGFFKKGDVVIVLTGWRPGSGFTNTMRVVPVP
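Purified hPK-M2 (>95% pure) converted ADP (0.1 mM final) to ATP with 0.5 mM PEP in 50 mM imidazole pH7.2, KCl, MgCl2, Tween 20, BSA; 1 h at room temperature. ATP detected by Kinase-Glo luminescence.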
RORg inh: blocks mouse ROR gamma transcriptional activity | Drosophila S2 Gal4-RORgamma UAS-luciferase reporter, 20 h | Potency, µM (highest dose often 53.6 µM), without a hit: at the highest dose activity change, negative = inhibition, hits mostly inhibitors | AID 2551 | P51450 | 310,000 tested, 5.4% active; note: potency is the fitted concentration of half-maximal effect; % is set by controls: 0 for no effect and ±100 for the full control effect; nearly all actives have a fitted effect of over 60% in size
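Read-out: Photinus luciferase luminescence; inhibitors lower reporter signal. Insect Schneider cells with Gal4-ROR gamma fusion under metallothionein promoter, UAS reporter; 700 uM final copper sulfate induction, 20 hr, ambient temperature.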
ELG1 DNA repair: inhibitors of ELG1-dependent DNA repair in HEK293T cells. HEK293T ELG1-luciferase reporter, luminescence, 16 h; DNA damage induced by 5-fluorouridine. Potency, µM (top dose mostly 46.1 µM), for inactives: at the top dose activity change, negative = inhibition, actives largely listed as inhibitors. 330,000 tested, 2.3% active; note: potency is the fitted concentration of half-maximal effect; % is set by controls: 0 for no effect and ±100 for the full control effect; nearly all actives have a fitted effect of over 55% in size
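In this reporter screen, reduction of luminescence relative to DMSO vehicle indicated activity. Compounds and 5-fluorouridine were added together to 2,000 cells per well, incubated for 16 hr at 37 °C, then developed with ONE-Glo.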
Mito fusion yeast: mitochondrial division inhibition or fusion activation; S. cerevisiae fusion-defective mutant growth rescue, CellTiterGlo 48 h; Potency, µM (top dose mostly 46.1 µM), inactives show top-dose growth rescue (activation), usual class: activators; 320,000 tested, 0.23% active; AID 485298;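 note: potency is the fitted concentration of half-maximal effect; % of control where 0% means no effect; nearly all actives have a fitted effect of over 45% in size; temperature-sensitive fusion mutants such as fzo1-1 at 37 °C on non-fermentable ethanol glycerol medium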
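Yeast fusion mutant, YPEG (non-fermentable carbon), compound, 48 h at 37C non-permissive; CellTiterGlo added, 10 min RT, luminescence read. Rescued growth = division inhibition.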
NPC1 prom act: activators of NPC1 promoter; Huh7 NPC1 promoter luciferase reporter, 24 h; Potency, µM (doses to about 9.22 µM), inactives show at the highest dose activation, hits mostly activators; 320,000 tested, 2.4% active;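 note: potency is the fitted concentration of half-maximal effect; % of control where 0% means no effect; nearly all actives have a fitted effect of over 60% in size; reporter is driven by a mutant NPC1 promoter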
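Stable NPC1-promoter luciferase Huh7 line; cpd (DMSO) 24 h, 37 °C, 5% CO2; Amplite luciferase reagent 10 min RT; luminescence readout. qHTS format.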
KCNH2 3.1 inh: inhibitors of human KCNH2 3.1 potassium channel isoform. U2OS KCNH2 3.1, thallium flux FluxOr; stronger effect = lower value. activity change, % (tested at about 1.8 µM). 340,000 tested, 0.95% active;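 active = maximum activity change below -70%; inconclusive = maximum activity change from -70% to -50%; inactive = maximum activity change above -50%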;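 note: thallium influx rate constant from kinetic fluorescence after stimulation buffer; % is set by controls: 0 for no effect and ±100 for the full control effect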
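We transduce U2OS cells with the mutant 3.1 virus, culture them overnight, load FluxOr with Red40 quencher for 45 min, then add stimulation buffer and read kinetically for 2 min to derive a normalized rate constant.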
Numbers without * were called inactive; & = joins results of further samples; [ ] = remark or other dose. Unless noted, calls come from the whole dose curve; as a rule, active = well fitted curve in the direction sought with a large enough effect; inconclusive = small, poorly fitted or top-dose-only effect, or another doubt; inactive = no such curve, though single readings can be large; an effect the other way counts as inactive or inconclusive. These rows are one share of the data; the hit share may differ from the screen's.

Screening CCOc1ccc(NC(=O)Cn2nnc(C(=O)NCc3cccs3)c2N)cc1 returned Rab9 promoter act -2%, MBNL1-CUG inh -3%, FLuc modulator 0%&0%, VP16 counter -8%, RORg inh -3%, ELG1 DNA repair 28%, Mito fusion yeast 1%, NPC1 prom act -4% and KCNH2 3.1 inh -3.
For C/C=C/c1ccc(OCC(O)CNCC(c2ccc(OC)cc2)N(C)C)c(OC)c1 (stereo unspecified) the results were Rab9 promoter act -3%[1.84 µM], MBNL1-CUG inh -4%, FLuc modulator 4%, VP16 counter 0%, RORg inh -26%, ELG1 DNA repair 13%, Mito fusion yeast -6%, NPC1 prom act -10% and KCNH2 3.1 inh -73*.
Screening CC(=O)Cc1nsc(NC(=O)c2cc(-c3ccc(Cl)c(Cl)c3)oc2C)n1 returned Rab9 promoter act -1%, MBNL1-CUG inh -7%, FLuc modulator -2%, VP16 counter -7%, PKM2 activator -10%, RORg inh -41%, ELG1 DNA repair -3%, Mito fusion yeast -1%, NPC1 prom act -3% and KCNH2 3.1 inh -3.
`CC(=O)c1cc(C#N)c(N2CCCCC2)nc1C` gave Rab9 promoter act 14%, MBNL1-CUG inh -3%, FLuc modulator -7%, VP16 counter 17%, PKM2 activator 0%, RORg inh -1%, ELG1 DNA repair 8%, Mito fusion yeast 0%, NPC1 prom act -3% and KCNH2 3.1 inh 10.
`COc1ccc(-c2nn3c(-c4ccccn4)nnc3s2)cc1OC` gave Rab9 promoter act -1%, MBNL1-CUG inh inconclusive, FLuc modulator 2%, VP16 counter -4%, PKM2 activator 4%, RORg inh -1%, ELG1 DNA repair inconclusive, Mito fusion yeast 11%, NPC1 prom act 1% and KCNH2 3.1 inh 15.
`CC(C)c1ccc(NC(=O)CCCC(=O)NCCc2ccccc2)cc1` gave Rab9 promoter act 0%, MBNL1-CUG inh -4%, FLuc modulator inconclusive, VP16 counter -4%, PKM2 activator 0%, RORg inh -5%, ELG1 DNA repair -19%, Mito fusion yeast 3%, NPC1 prom act 2% and KCNH2 3.1 inh -4.
`O=C(N/N=C/c1coc2ccccc2c1=O)c1cc(O)cc(O)c1` gave Rab9 promoter act -1%, MBNL1-CUG inh -2%, FLuc modulator -3%, VP16 counter -4%, PKM2 activator -1%, RORg inh -1%, ELG1 DNA repair -19%, Mito fusion yeast -2%, NPC1 prom act -2% and KCNH2 3.1 inh 21.
`Nc1c(C(=O)NCc2ccco2)nnn1CC(=O)Nc1ccccc1` gave Rab9 promoter act -10%, MBNL1-CUG inh 2%, FLuc modulator -1%, VP16 counter 0%, PKM2 activator -12%, RORg inh 3%, ELG1 DNA repair 9%, Mito fusion yeast 2%, NPC1 prom act 3% and KCNH2 3.1 inh 4.
`COc1ccccc1Nc1nc2ccc(C)cc2n2cnnc12` gave Rab9 promoter act 21%, MBNL1-CUG inh 3%, FLuc modulator inconclusive, VP16 counter 19%, RORg inh 10%, ELG1 DNA repair inconclusive, Mito fusion yeast inconclusive, NPC1 prom act 18% and KCNH2 3.1 inh inconclusive.
For Cc1ccc(NC(=O)CN2C(=O)N/C(=C/c3ccc(C)s3)C2=O)cc1 the results were Rab9 promoter act 1%, MBNL1-CUG inh 0%, FLuc modulator 1%, VP16 counter -3%, PKM2 activator 24%, RORg inh inconclusive, ELG1 DNA repair inconclusive, Mito fusion yeast -2%, NPC1 prom act 2% and KCNH2 3.1 inh -16.
`CCOc1cc(/C=C2/NC(=O)N(CC(=O)Nc3cccc(C)c3)C2=O)ccc1OCC(N)=O` gave Rab9 promoter act 0%, MBNL1-CUG inh inconclusive, FLuc modulator 3%, VP16 counter 4%, PKM2 activator -2%, RORg inh -3%, ELG1 DNA repair -16%, Mito fusion yeast -6%, NPC1 prom act -8% and KCNH2 3.1 inh -2.
For CN(C)C(=O)NC(NC(=S)Nc1ccccc1)C(Cl)(Cl)Cl (stereo unspecified) the results were Rab9 promoter act -5%, MBNL1-CUG inh 3%, FLuc modulator -18%, VP16 counter -2%, PKM2 activator -6%, RORg inh -32%, ELG1 DNA repair -10%, Mito fusion yeast 2%, NPC1 prom act -3% and KCNH2 3.1 inh -9.
CS(=O)(=O)N1CCc2cc(C(=O)OCC(=O)c3ccccc3)ccc21 was read as Rab9 promoter act 3.5µM*, MBNL1-CUG inh -10%, FLuc modulator 4.8µM*, VP16 counter inconclusive, PKM2 activator 3%, RORg inh inconclusive, ELG1 DNA repair inconclusive, Mito fusion yeast 1%, NPC1 prom act 3.2µM* and KCNH2 3.1 inh -14.
For COc1ccccc1CNC(=O)C1CCC(CNS(=O)(=O)c2ccc(C)cc2)CC1 (stereo unspecified) the results were Rab9 promoter act 0%, MBNL1-CUG inh 1%, FLuc modulator 1%, VP16 counter -4%, RORg inh -38%, ELG1 DNA repair inconclusive, Mito fusion yeast -1%, NPC1 prom act -4% and KCNH2 3.1 inh -1.
`Cc1ccccc1/C=C/c1nc2ccccc2c(=O)n1Cc1ccccc1` gave Rab9 promoter act -9%, MBNL1-CUG inh -11%, FLuc modulator 4%, VP16 counter 2%, PKM2 activator 4%, RORg inh 23%, ELG1 DNA repair inconclusive, Mito fusion yeast 18%, NPC1 prom act 1% and KCNH2 3.1 inh -7.
`Cc1ccc(C(=O)Nc2ccc3c(c2)C(=O)NC3=O)cc1` gave Rab9 promoter act 14%, MBNL1-CUG inh 9%, FLuc modulator inconclusive, VP16 counter -12%, PKM2 activator 1%, RORg inh -28%, ELG1 DNA repair 9%, Mito fusion yeast 0%, NPC1 prom act -2% and KCNH2 3.1 inh 3.
`CCOC(=O)c1cnc2ccc(Cl)cc2c1N1CCN(C)CC1` gave Rab9 promoter act -1%, MBNL1-CUG inh 11%, FLuc modulator -11%, VP16 counter 12%, PKM2 activator -2%, RORg inh -19%, ELG1 DNA repair -19%, Mito fusion yeast -3%, NPC1 prom act -4% and KCNH2 3.1 inh 7.
O=C(Nc1ccc2c(c1)Cc1ccccc1-2)c1ccco1 was read as Rab9 promoter act 0.4µM*, MBNL1-CUG inh 8%, FLuc modulator 2.1µM*, VP16 counter -2%, PKM2 activator 6%, RORg inh 10%, ELG1 DNA repair inconclusive, Mito fusion yeast -13%, NPC1 prom act 0.79µM* and KCNH2 3.1 inh -18.
CN(C)c1oc(-c2ccccc2)nc1C#N was read as Rab9 promoter act -3%, MBNL1-CUG inh 15%, FLuc modulator -7%, VP16 counter 0%, PKM2 activator 0%, RORg inh 10%, ELG1 DNA repair 3%, Mito fusion yeast 2%, NPC1 prom act 0% and KCNH2 3.1 inh 1.
Screening CCOCCCn1c(=S)[nH]c2cc(C(=O)NCc3ccc(F)cc3)ccc2c1=O returned Rab9 promoter act 1%, MBNL1-CUG inh 6%, FLuc modulator 1%, VP16 counter -19%, RORg inh -45%, ELG1 DNA repair 17%, Mito fusion yeast 1%, NPC1 prom act -2% and KCNH2 3.1 inh -4.
For CCN(C(=O)CSc1nnnn1-c1ccccc1)C1CCS(=O)(=O)C1 (stereo unspecified) the results were Rab9 promoter act 0%, MBNL1-CUG inh 1%, FLuc modulator -2%, VP16 counter 4%, PKM2 activator 0%, RORg inh 9%, ELG1 DNA repair 0%, Mito fusion yeast -8%, NPC1 prom act 0% and KCNH2 3.1 inh 19.
Screening COC(=O)c1cc(NC(=O)CN(c2cccc(OC)c2)S(=O)(=O)c2ccccc2)ccc1Cl returned Rab9 promoter act -1%, MBNL1-CUG inh -7%, FLuc modulator 0%, VP16 counter -8%, PKM2 activator 10%, RORg inh 15%, ELG1 DNA repair inconclusive, Mito fusion yeast 7%, NPC1 prom act -1% and KCNH2 3.1 inh -24.
COc1ccccc1CNC(=O)N1CCN(S(=O)(=O)c2ccc(C)cc2)CC1 was read as Rab9 promoter act -11%, MBNL1-CUG inh -4%, FLuc modulator 3%, VP16 counter -13%, PKM2 activator inconclusive, RORg inh -13%, ELG1 DNA repair 7%, Mito fusion yeast 3%, NPC1 prom act 2% and KCNH2 3.1 inh 7.
For CCNS(=O)(=O)c1ccc(CCC(=O)Nc2ccc3c(c2)OCCO3)cc1 the results were Rab9 promoter act -4%, MBNL1-CUG inh -2%, FLuc modulator -1%, VP16 counter -10%, PKM2 activator 12%, RORg inh 14%[1.91 µM], ELG1 DNA repair 7%, Mito fusion yeast 2%, NPC1 prom act 4% and KCNH2 3.1 inh -9.
